# Source: PubChem (National Center for Advancing Translational Sciences (NCATS))
# VDR inh: inhibitors of human vitamin D receptor; VDR-SRC2-3 peptide fluorescence polarization, 2 h; P11473; Potency, µM, for inactives: max response, negative = inhibition, hits mostly inhibitors; 400,000 compounds, 0.93% hits; AID 504847; active means well fitted inhibition curve with a large enough effect; inconclusive means small, poorly fitted or top-dose-only effect, or another doubt; inactive means no such curve, though single readings can be large or run the other way; further: series mostly up to about 120 µM
# Target sequence (P11473 whole entry, looked up): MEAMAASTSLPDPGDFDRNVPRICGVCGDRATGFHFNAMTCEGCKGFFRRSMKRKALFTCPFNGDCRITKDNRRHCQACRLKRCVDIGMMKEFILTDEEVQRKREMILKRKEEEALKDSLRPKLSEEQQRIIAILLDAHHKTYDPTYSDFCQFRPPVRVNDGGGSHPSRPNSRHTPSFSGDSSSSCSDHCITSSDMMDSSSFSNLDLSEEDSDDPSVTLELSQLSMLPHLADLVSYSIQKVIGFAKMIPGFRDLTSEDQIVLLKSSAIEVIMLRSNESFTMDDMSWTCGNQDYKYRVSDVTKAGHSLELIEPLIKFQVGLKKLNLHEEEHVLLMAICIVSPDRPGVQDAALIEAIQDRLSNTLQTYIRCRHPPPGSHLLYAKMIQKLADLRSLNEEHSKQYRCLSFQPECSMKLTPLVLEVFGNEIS
#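 Inhibition of the VDR/SRC2-3 peptide interaction is quantified by fluorescence polarization. Compounds (23 nl, pintool) incubate with the reagents for 2 hours at ambient room temperature.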
# * marks the source's active call; other numbers are inactive results; ? = inconclusive; & = joins results of further samples. On the % scale 0 is the no-effect control and ±100 the full control effect; potency means the concentration at half of the fitted maximal effect.
SMILES	VDR inh
Cc1c2cnn(-c3ccccc3)c(=O)c2c(C)n1CC(=O)N1CCN(c2ccc(F)cc2)CC1	-3%
O=C(CSc1nnc(NC(=O)c2ccccc2F)s1)NC1CCCC1	-15%
CC(C)Cn1c(=O)c2ccccc2n2c(-c3cccc(Cl)c3)nnc12	22%
COc1ccc([N+](=O)[O-])cc1NC(=O)C(C)Sc1nc(C)c(C)c(C)n1 (stereo unspecified)	-20%
O=C1CCC(=O)N1c1ccc(NCCc2ccccc2F)c([N+](=O)[O-])c1	-4%
Cc1ccccc1NN1C(=O)C=CC1=O	0%
CCNC(=S)Nc1ccc(Cc2ccncc2)cc1	-7%
COc1cc(OC)c(NC(=O)CCCNC(=O)Cn2cnc3sc(C)c(C)c3c2=O)cc1Cl	9%
O=C(CCCOc1ccccc1)N1CCCCC1	-3%
CC1(C)Oc2ccc3ccc(=O)oc3c2/C(=C/Nc2ccccc2)C1=O	3%
Cc1ccc(C)c(OCCC(=O)Nc2cccc(S(=O)(=O)N3CCCC3)c2)c1	-1%
CCCCC1=CC2=CC(=O)C(C)(O)C(=O)C2=CO1 (stereo unspecified)	3%
Nc1c(C(=O)O)ccc2c1C(=O)c1ccccc1C2=O	-10%
CC(C)(C)NC(=S)NC(C)(C)C	3%
CC1=Nn2c(nnc2-c2cc(C)[nH]n2)SC1	-14%
CN(C)S(=O)(=O)c1ccc(C(=O)Nc2nc(-c3cccs3)cs2)cc1	-18%
C=CCNC(=O)C1CC2Cn3c(nc4cc(C)c(C)cc43)C2N1C (stereo unspecified)	-21%
COCCOC(=O)C1=C(C)NC(=O)CC1c1cc2c(cc1Br)OCO2 (stereo unspecified)	-23%
Cc1cc(C(=O)N2CCN(c3cccc(Cl)c3)CC2)c(C)o1	-23%
O=c1cc(-c2ccccc2)n2c(SCc3ccccc3Cl)nnc2[nH]1	3%
COCCn1c(SCC(=O)c2ccc(C)cc2C)nc2cc(C(=O)NC3CCCC3)ccc2c1=O	14%
COc1ccc(NC(=O)/C(C#N)=C\c2ccc(Br)o2)cc1	4%
COc1cc2c(=O)n(CCC(=O)NCC3CCCO3)c(=O)n(CC(=O)c3ccc(Cl)cc3)c2cc1OC (stereo unspecified)	11%
COc1ccc(-n2c(CCC(=O)O)ccc2-c2ccccc2)cc1	-6%&-2%
CN(Cc1nc2ccccc2c(=O)[nH]1)C(=O)c1ccc(S(=O)(=O)N(C)C)cc1	6%
CS(=O)(=O)N(CC(=O)NCCc1ccccc1)c1cccc([N+](=O)[O-])c1	-24%
O=c1c(-c2ccc(F)cc2)nc2cnc(N3CCNCC3)nc2n1-c1ccccc1	-7%
Cc1ccc(-c2c(C(=O)Nc3ccc(F)c(F)c3)oc(=O)c3ccccc23)cc1	1%
Cc1[nH]n(-c2ccccc2)c(=O)c1C1(C(F)(F)F)C(=O)N(c2ccc(F)cc2)C2=C1C(=O)CC(C)(C)C2 (stereo unspecified)	-11%
CCCN(C(=O)CSc1nnc(N)s1)c1c(N)n(Cc2ccccc2)c(=O)[nH]c1=O	-17%
Clc1ccc(-c2nc3nc4ccccc4nc3n2Cc2ccco2)cc1	-11%
O=c1[nH]nc(Cc2ccc([N+](=O)[O-])cc2)c2ccccc12	-13%
CC(C(=O)OCC(=O)c1ccccc1)N1C(=O)c2ccccc2C1=O (stereo unspecified)	?
CC1CCN(S(=O)(=O)c2ccc3nc(Nc4cccc(C(F)(F)F)c4)ccc3c2)CC1	7%
O=C(CSc1nc(=O)n(CCCN2CCOCC2)c2c1CCCC2)Nc1ccccc1Cl	1%
Cc1ccc(-c2cnc(NC(=O)c3cccc(Br)c3)s2)c(C)c1	-2%
CCCNC(=O)Cn1nc(-c2ccc(OC)cc2)c2cnc3ccc(F)cc3c21	11%
Cc1ccc(C(=O)NS(=O)(=O)c2ccc(N=NN(C)C)cc2)cc1	-10%
Cc1cc(NCc2ccccn2)ccc1Br	-5%
COc1ccc(C2C=C(C)Nc3nc4ccccc4n32)cc1 (stereo unspecified)	-2%
O=C(CSc1ncccn1)N1CCCC1	3%
CC(C(=O)Nc1ccc(C#N)cc1)N(C)CC(=O)N(C)c1c(N)n(Cc2ccccc2)c(=O)[nH]c1=O (stereo unspecified)	-1%
COc1ccc(-c2nc(N)n(C(=O)Cc3ccccc3)n2)cc1	3%
O=C(c1c(Cl)cccc1Cl)N1CCCCCC1	5%
CC1(C)CC(=O)C=C(NC2CCCCCC2)C1	0%
CC[n+]1ccc(/C=C/c2c[nH]c3ccccc23)cc1	-2%
CN(C(=O)c1ccco1)c1nnc(C23CC4CC(CC(C4)C2)C3)s1	-7%
CN(C)CCNc1ccc(CO)c2oc3ccc(O)cc3c(=O)c12	-5%
N#Cc1ccsc1NC(=O)C1CCN(C(=O)c2ccc(Cl)cc2)CC1	0%
Cc1ccc(NC(=O)COC(=O)CNC(=O)c2cccs2)cc1S(=O)(=O)N1CCOCC1	14%
Cc1noc(C)c1COc1ccccc1C(=O)N1CCN(S(=O)(=O)c2ccc(F)c(F)c2)CC1	-12%
O=C(/C=C/c1cccc([N+](=O)[O-])c1)NCc1ccco1	-11%
CCc1cc2cc(C)ccc2nc1SCC(=O)NNC(=O)c1ccco1	-3%
CC(OC(=O)CCCN=C1NS(=O)(=O)c2ccccc21)C(=O)Nc1ccccc1[N+](=O)[O-] (stereo unspecified)	-16%
COc1ccc(C(=O)Nc2cccc3c2CCCC3)cc1OC	-18%
CC(=O)N/N=C/c1cc(C(C)(C)C)cc(/C=N/NC(C)=O)c1O	10%
COc1ccc(OC)c(CNC(=O)CN2CC(C)Sc3ccccc32)c1 (stereo unspecified)	6%
COc1cc2c(cc1OC)CC(C(=O)NCc1ccccc1)NC2 (stereo unspecified)	15%
C[N+]1(Cc2ccccc2)CCC(C(=O)OCC2CCCC2)CC1 (stereo unspecified)	14%
COc1ccccc1Nc1nnc(SCC(=O)N2CCCC2)s1	-3%

# Additional entries follow.
SMILES	VDR inh
COC(=O)c1[nH]c2cc(C)ccc2c1NC(=O)CN1CCCc2ccccc21	-8%
CCOC(=O)C1(C(=O)OCC)NC(=O)CC1C(C)C (stereo unspecified)	-6%
CSc1cccc(NC(=S)NC(=O)c2cccnc2)c1	-3%
Cc1ccc(C(=O)Nc2ccc3c(c2)OCCO3)cc1S(=O)(=O)N1CCOCC1	-7%
COC(=O)CSc1nnc(CNC(=O)c2ccc(S(=O)(=O)N3CCOCC3)cc2)n1C	-2%
Cc1ccc(C(C)C)c(OCC(=O)NNC2=CC(=O)CC(C)(C)C2)c1	-8%
COc1ccc(NC(=O)CSc2nc3[nH]ncc3c(=O)[nH]2)c(OC)c1	1%
COC(=O)C1=C(C)Nc2nnnn2C1c1cccs1 (stereo unspecified)	-5%
Cc1cccc(-n2ccnc2CN2CCN(C3CCCC3)C(CCO)C2)c1 (stereo unspecified)	8%
Cc1ccc(NC(=O)CNc2ccccc2N2CCCC2=O)cc1S(=O)(=O)N1CCCCC1	3%
COc1ccc(C)cc1S(=O)(=O)N1CCC(C(=O)NCCc2ccccc2)CC1	-25%
COc1ccc(F)cc1S(=O)(=O)NCC(c1ccco1)S(=O)(=O)c1ccc(F)cc1 (stereo unspecified)	6%
COC(=O)c1cc(NC(=O)COC(=O)CN2C(=O)C3CC=CCC3C2=O)cc(C(=O)OC)c1 (stereo unspecified)	1%
CN=C1N(C)C[C@@H]2[C@@H]3C(=O)N(C)C(=O)[C@@H]3[C@](Cc3ccccc3)(C(=O)OC)N12	5%
CC(=O)N1CCN(C(=O)c2ccccc2NS(=O)(=O)c2ccc(F)cc2)CC1	-4%
Cn1nc(C(=O)NC2CCCN(Cc3ccccc3F)C2)c2ccccc2c1=O (stereo unspecified)	-10%
Cc1ccc(-c2nc3ccccc3c(=O)n2NC(=O)COc2ccccc2)cc1	-4%
CC(=O)C1=C(O)C(=O)N(c2ccc(S(N)(=O)=O)cc2)C1c1cccc([N+](=O)[O-])c1 (stereo unspecified)	-15%
CCc1nc2c(oc3ccccc32)c(=O)[nH]1	-1%
O=c1cc(-c2ccc(O)cc2)oc2c1ccc1ccccc12	16%
O=C(c1cccnc1)N1CCN(c2ccc([N+](=O)[O-])cc2Cl)CC1	5%
Cc1ccccc1CN1[C@@H]2c3ccccc3C[C@@H]2OCCS1(=O)=O	3%
CCOC(=O)c1c(C)oc2nc(C)nc(NC(C)c3ccccc3)c12 (stereo unspecified)	17%
CCc1ccc(NC(=O)CN2CCC(C(=O)c3ccc(OC)cc3)CC2)cc1	1%

# Taken from above:
# VDR inh result of Cc1ccc(-c2cnc(NC(=O)c3cccc(Br)c3)s2)c(C)c1 = -2%
# VDR inh result of O=c1cc(-c2ccccc2)n2c(SCc3ccccc3Cl)nnc2[nH]1 = 3%

# (continued)
SMILES	VDR inh
Cc1ccc(NC(=O)CN(C)C(=O)COC(=O)c2ccc(NC(=O)CC#N)cc2)cc1	2%
CCC/C(C#Cc1ccc(N(C)C)cc1)=C1/c2ccccc2C(=O)N1c1ccccc1	-9%
CN(C(=O)c1cc2ccccc2o1)c1c(N)n(Cc2ccccc2)c(=O)[nH]c1=O	-15%
NS(=O)(=O)c1cccc(NC(=O)Cn2cc(C(F)(F)F)cc(Cl)c2=O)c1	-8%
CC(C)c1nnc(NC(=O)CCC(=O)NCc2cccs2)s1	-4%
CCC(C)NS(=O)(=O)c1ccc(S(=O)(=O)N(CC(=O)Nc2ccccc2)Cc2ccco2)cc1 (stereo unspecified)	13%
COc1ccc(-c2cc(C(=O)N3CCN(S(=O)(=O)c4ccccc4)CC3)[nH]n2)cc1	3%
CCOc1ccc(N2CC(NC(=O)c3cccc4ccccc34)CC2=O)cc1 (stereo unspecified)	15%
CN=C1c2cc3cc(OC)ccc3n2CCN1Cc1ccccc1	-4%
CC(C)C(=O)Nc1ccc(C(=O)Nc2nnc(C(C)(C)C)s2)cc1	25%
Cc1cccc(OCCCCCn2ccnc2)c1C	18%
NS(=O)(=O)c1ccc(NC(=S)NC(=O)/C=C/c2ccco2)cc1	-4%

# Compounds from the list above that contain a nitro group on carbon:
SMILES	VDR inh
COc1ccc([N+](=O)[O-])cc1NC(=O)C(C)Sc1nc(C)c(C)c(C)n1 (stereo unspecified)	-20%
O=C1CCC(=O)N1c1ccc(NCCc2ccccc2F)c([N+](=O)[O-])c1	-4%
CS(=O)(=O)N(CC(=O)NCCc1ccccc1)c1cccc([N+](=O)[O-])c1	-24%
O=c1[nH]nc(Cc2ccc([N+](=O)[O-])cc2)c2ccccc12	-13%
O=C(/C=C/c1cccc([N+](=O)[O-])c1)NCc1ccco1	-11%
CC(OC(=O)CCCN=C1NS(=O)(=O)c2ccccc21)C(=O)Nc1ccccc1[N+](=O)[O-] (stereo unspecified)	-16%
CC(=O)C1=C(O)C(=O)N(c2ccc(S(N)(=O)=O)cc2)C1c1cccc([N+](=O)[O-])c1 (stereo unspecified)	-15%
O=C(c1cccnc1)N1CCN(c2ccc([N+](=O)[O-])cc2Cl)CC1	5%

# The list continues.
SMILES	VDR inh
O=C(COC(=O)c1ccc(O)cc1)NC1CCCCCC1	-20%
FC(F)(F)c1cccc(CNc2ncccc2-c2nc3cc(Cl)ccc3o2)c1	-3%
CC(=O)Nc1ccc(C(=O)OCC(=O)N2CCC(Cc3ccccc3)CC2)cc1	-9%
CCNc1ncc2nc(-c3ccc(F)cc3)c(=O)n(CCc3ccccc3)c2n1	2%
CCOc1ccc(C(=O)Nc2cccc(NC(=O)c3ccc(Cl)cc3Cl)c2)cc1	18%
Cn1c(=O)c2c(nc(N3CCN(Cc4ccccc4)CC3)n2CCCc2ccccc2)n(C)c1=O	5%
CCOc1ccc(NC(=O)C2CCCN2S(=O)(=O)c2ccc(OCC)cc2)cc1 (stereo unspecified)	13%
CCCC(=O)Nc1ccc(-c2csc(-c3cccnc3)n2)cc1	-10%
CCC1CCCCN1C(=O)CSc1nnc(-c2cccc(Cl)c2)o1 (stereo unspecified)	-14%
O=C1Nc2ccccc2/C1=N\N=C\c1ccc(O)c(O)c1	29%
Cc1ccc(S(=O)(=O)N2CCC[C@H]2C(=O)NC2=NCCS2)cc1	-8%
CCOC(=O)C1(Cc2ccc(OC)cc2)CCN(C(=O)CN2CCOC2=O)CC1	7%
Cc1nc2ccc(NC(=O)c3ccc(F)c(S(=O)(=O)N4CCOCC4)c3)cc2s1	-2%
O=S(=O)(c1cccc(-c2n[nH]c(=S)o2)c1)N1CCOCC1	-14%
CC1CCCCC1NC(=O)CCCCCn1c(=S)[nH]c2ccsc2c1=O (stereo unspecified)	-11%
CN(C)CCNC(=O)CNC(=S)N(Cc1ccccc1)Cc1cccnc1	-5%
O=C(Nc1ccccc1)c1ccc(-c2ccccc2Cl)o1	-4%
CCc1ccc(C(=O)N/N=C(\C)c2cccnc2)s1	-15%
Cc1cc[n+](-c2nc3ccccc3nc2C(=C=[N-])C#N)cc1	0%
COc1cc(SC)ccc1C(=O)OC(C)C(=O)Nc1ccc(NC(C)=O)cc1 (stereo unspecified)	0%
CN(C)CCCNCC(=O)c1c(-c2ccccc2)n(C)c2ccccc12	79µM*
C/C(=N/Nc1nc(C)c(C)s1)c1cccc([N+](=O)[O-])c1	-11%
O=C1CCN(CCc2ccccc2)CCN1[C@H](CSc1ccccc1)Cc1ccccc1	8%
CC1=C(C(=O)Nc2cc(C(=O)NCCCOC(C)C)ccc2C)SCCO1	-5%
Cc1ccc(S(=O)(=O)CC(=O)c2ccc3c(c2)OCCO3)cc1	3%
CSc1ccccc1NC(=O)CN1CCN(c2ccccn2)CC1	1%
CCOC(=O)CC(=O)CSc1ccc2nnc(-c3ccc(F)cc3)n2n1	8%
Cc1cccc(N2CCN(C(=O)Cn3cccc3C(=O)c3ccccc3)CC2)c1C	-7%

# This is a subset. The share of hits here may be higher or lower than overall.
